V-ATPase pH – regulators of yeast V-ATPase proton transport. S. cerevisiae, pHLuorin cytosolic pH fluorescence. response, % at 10 µM. 0.37% of 350,000 active. AID 504577; in the data active = response mostly above about 7.3%, no sharp cut-off; inactive = mostly below about 5.4%; note: actives read high; inactives centre near 0; some compounds called inactive have numbers as strong as hits
Pemphigus Ab inh – inhibitors of pemphigus antibody binding to human desmoglein-3; P32926; DSG3-coupled beads, scFv-anti-DSG3-GFP binding, flow cytometry; hits give low values; binding (percent of control), % at 10 µM; 0.48% of 310,000 active; AID 588358;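 active = binding more than 3 SD below its plate's average and above zero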;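 note: hits lower antibody fragment binding to DSG3; some compounds called inactive have numbers as strong as hits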
NSD2 HMT inh – inhibitors of human histone methyltransferase NSD2; NSD2 peptide methylation, AlphaScreen, 120 min; 0.54% of 310,000 active; inhibition, % at 12.5 µM; in the data active = inhibition above about 50%
RTF Ca sens inh – cardiac RTF calcium desensitization; inhibition, % at 7.15 µM; IANBD-labeled cardiac RTF, Ca2+ fluorescence; 0.12% of 340,000 active;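 active = inhibition above the mean inhibition of all tested compounds plus 3 SD, cut at about 17% in these data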;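 note: assay run at fixed EC70 calcium of 1.6 mM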
CAL PDZ FP-1 – blocks peptide binding to human CAL PDZ domain; purified CAL PDZ, TMR-peptide fluorescence polarization, 1 h; Q9HD26; 0.02% of 330,000 active; AID 504414; inhibition, % at 20 µM;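 active = highest replicate inhibition of at least 40%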;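 note: plate controls were DMSO neutral control wells for no effect and unlabeled competitor peptide control wells for full effect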
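Material – purified CerCALP PDZ construct · Detection – FP readout, S and P plane fluorescence · Measure – percent inhibition from loss of millipolarization · Controls – unlabelled peptide for full inhibition, DMSO wells as neutral · Probe or stimulus – TMR-labelled reporter peptide T*-PRC34 bound in PDZ groove · Times – 1 h at RT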
CAL PDZ FP-2 – blocks peptide binding to the human CAL PDZ domain; AID 602252; Q9HD26; inhibition, % at 24.9 µM; purified CAL PDZ, TMR-peptide fluorescence polarization, 1 h; 0.92% of 300,000 active;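 active = mean inhibition of at least 30% with at least half of replicates also reaching 30%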;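 note: 0% = DMSO neutral control and 100% = excess unlabeled competitor peptide PRC23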
DAGLB inh – blocks human DAGLB lipase activity; inhibition, % at 5.17 µM; Q8NCG7; HEK293T DAGLB membrane lysate, EnzChek fluorogenic substrate; 0.059% of 340,000 active; in the data active = inhibition above about 34%;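 note: 0% = enzyme with vehicle and 100% = wells lacking enzyme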
* = called active by the depositor; / = not tested or not shown; + = active, no number; & = joins results of further samples. An excerpt; the hit share may differ from the screen's.

1. COC(=O)C1=C(C)NC(C)=C(C(=O)OCCN(C)Cc2ccccc2)C1c1cccc([N+](=O)[O-])c1 (centres undefined)
2. CC(=O)Nc1cccc(-c2nnc(-c3ccc(C)cc3)o2)c1
3. O=C(O)CCNC(=O)c1ccccc1
4. CN=C(C[N+](=O)[O-])NCCSCc1ccc(CN(C)C)o1
5. CC(C)(C(=O)O)c1ccc(C(O)CCCN2CCC(C(O)(c3ccccc3)c3ccccc3)CC2)cc1 (centres undefined)
6. COc1c(N2C[C@@H]3CCCN[C@@H]3C2)c(F)cc2c(=O)c(C(=O)O)cn(C3CC3)c12
7. C[C@@H]1C[C@H]2[C@@H]3C[C@H](F)C4=CC(=O)C=C[C@]4(C)[C@@]3(F)[C@@H](O)C[C@]2(C)[C@@]1(O)C(=O)CO
8. CC(C)[N+]1(C)[C@@H]2CC[C@@H]1CC(OC(=O)C(CO)c1ccccc1)C2 (some centres undefined)

| assay / entry | 1 | 2 | 3 | 4 | 5 | 6 | 7 | 8 |
| --- | --- | --- | --- | --- | --- | --- | --- | --- |
| RTF Ca sens inh | 2.1 | -8.7 | -2.1 | -6.4 | 9.3 | 4.3 | -3.8 | 15.4 |
| CAL PDZ FP-2 | -0.8 | -3.2 | 0.1 | -0.7 | -1.6 | -2.1 | -2.2 | -3.5 |
| DAGLB inh | -2.4 | -2.1 | -0.4 | -0.1 | 3.4 | 1.8 | 4.1 | 0.5 |
| V-ATPase pH | -2.1 | 0.0 | -3.2 | -1.3 | -3.6 | -1.4 | 4.1 | 4.5 |
| NSD2 HMT inh | / | 0.0 | / | / | / | / | / | / |
| Pemphigus Ab inh | / | 125.0 | 99.1 | 117.5 | / | 96.3 | / | 96.3 |
| CAL PDZ FP-1 | -0.1 | 0.4 | -0.2 | 0.6 | 1.1 | 0.4 | -0.1 | -0.2 |

9. CCN(CC)CCOc1ccc(/C(=C(/Cl)c2ccccc2)c2ccccc2)cc1
10. CC1=C(/C=C/C(C)=C/C=C/C(C)=C/C(=O)O)C(C)(C)CCC1
11. Cc1cnc(NC(=O)C2C(=O)c3ccccc3S(=O)(=O)N2C)s1 (centres undefined)
12. COc1ccc(CC(=O)Nc2nc3ccccc3[nH]2)cc1
13. CCCC(=O)Nc1ccc(OCC(O)CNC(C)C)c(C(C)=O)c1 (centres undefined)
14. CN/C(=C/[N+](=O)[O-])NCCSCc1ccc(CN(C)C)o1
15. CC(C)NCC(O)COc1cccc2ccccc12 (centres undefined)
16. Cc1nc(-c2ccccc2)c(-c2ccccc2)[nH]1

| assay / entry | 9 | 10 | 11 | 12 | 13 | 14 | 15 | 16 |
| --- | --- | --- | --- | --- | --- | --- | --- | --- |
| RTF Ca sens inh | -1.8&3.3 | -3.6 | 9.6 | -10.2 | -11.3 | -2.1 | 11.7 | 2.4 |
| CAL PDZ FP-2 | -4.3&0.5 | 3.8 | -5.1 | -1.5 | -0.5 | -4.7 | -1.8 | 2.2 |
| DAGLB inh | 0.5&-0.5 | 2.4 | 3.0 | -0.5 | 2.4 | -4.3 | 1.0 | -1.0 |
| V-ATPase pH | 4.2&3.0 | 1.5 | -0.2 | 5.6 | 0.5 | -2.7 | -1.8 | -3.3 |
| NSD2 HMT inh | / | / | / | 0.4 | / | / | / | -0.8 |
| Pemphigus Ab inh | 116.7&106.6 | 111.6 | 98.6 | 98.2 | 96.0 | 110.0 | 100.2 | 103.5 |
| CAL PDZ FP-1 | -1.4&-0.2 | 0.5 | -0.4 | -0.9 | -0.2 | 1.0 | -0.7 | 0.0 |

17. C[C@H](C(=O)O)c1cccc(C(=O)c2ccccc2)c1
18. Nc1ccc(OCCc2ccccc2)cc1
19. O=C1NC[C@H](c2ccccc2)OC(=O)[C@H](Cc2ccc(F)cc2)CC/C=C/C[C@H]1CC(=O)N(CCO)Cc1ccccc1
20. N#Cc1c(-c2cccc(Br)c2)cc(-c2ccco2)[nH]c1=O
21. Cn1c(=O)c2c(ncn2C)n(C)c1=O
22. CN1C2CCC1CC(OC(=O)C(CO)c1ccccc1)C2 (centres undefined)
23. COc1ccc(C2CC(c3ccccc3)=NN2C(=O)CCCC(=O)O)cc1 (centres undefined)
24. CCC(C)(CN(C)C)OC(=O)c1ccccc1 (centres undefined)
25. Cc1cnc(NC(=O)C2=C(O)c3ccccc3S(=O)(=O)N2C)s1
26. Cc1nc2ccc(S(=O)(=O)NCC(=O)NCCN3CCCCCC3)cc2s1

| assay / entry | 17 | 18 | 19 | 20 | 21 | 22 | 23 | 24 | 25 | 26 |
| --- | --- | --- | --- | --- | --- | --- | --- | --- | --- | --- |
| RTF Ca sens inh | 6.9 | -9.1 | 1.2 | -12.8 | -3.1 | + | 3.0 | 0.8 | 8.9&4.3&10.2&-15.1 | -12.4 |
| CAL PDZ FP-2 | 3.0 | -4.3 | 0.9 | -6.9 | -2.3 | -3.0 | -5.9 | / | -0.7&-4.5&-1.8&-2.2 | 0.1 |
| DAGLB inh | 0.2 | 0.5 | -0.2 | 12.8 | 0.9 | -0.1 | 3.4 | 0.1 | 0.9&4.6&-1.0&1.3 | 3.0 |
| V-ATPase pH | -49.0 | -1.5 | 2.9 | -2.9 | 1.1 | 10.9 | -0.3 | 2.9 | 1.1&0.7&-3.1&-2.6 | -6.6 |
| NSD2 HMT inh | / | 1.2 | / | 27.4 | / | / | 0.3 | / | / | -1.8 |
| Pemphigus Ab inh | 110.9 | 107.8 | 104.0 | 100.7 | 104.7 | 109.8 | 104.3 | 100.3 | 109.8&103.4&93.8&113.8 | 115.4 |
| CAL PDZ FP-1 | 0.2 | 0.6 | 0.0 | / | 0.0 | -0.1 | -20.7 | 0.0 | 0.0&-1.1&-0.3&0.1 | -1.6 |

Three records drawn at random from the list so far:
23. COc1ccc(C2CC(c3ccccc3)=NN2C(=O)CCCC(=O)O)cc1 (centres undefined)
25. Cc1cnc(NC(=O)C2=C(O)c3ccccc3S(=O)(=O)N2C)s1
24. CCC(C)(CN(C)C)OC(=O)c1ccccc1 (centres undefined)

| assay / entry | 23 | 25 | 24 |
| --- | --- | --- | --- |
| RTF Ca sens inh | 3.0 | 8.9&4.3&10.2&-15.1 | 0.8 |
| CAL PDZ FP-2 | -5.9 | -0.7&-4.5&-1.8&-2.2 | / |
| DAGLB inh | 3.4 | 0.9&4.6&-1.0&1.3 | 0.1 |
| V-ATPase pH | -0.3 | 1.1&0.7&-3.1&-2.6 | 2.9 |
| NSD2 HMT inh | 0.3 | / | / |
| Pemphigus Ab inh | 104.3 | 109.8&103.4&93.8&113.8 | 100.3 |
| CAL PDZ FP-1 | -20.7 | 0.0&-1.1&-0.3&0.1 | 0.0 |

Of the compounds above, three contain fluorine:
6. COc1c(N2C[C@@H]3CCCN[C@@H]3C2)c(F)cc2c(=O)c(C(=O)O)cn(C3CC3)c12
7. C[C@@H]1C[C@H]2[C@@H]3C[C@H](F)C4=CC(=O)C=C[C@]4(C)[C@@]3(F)[C@@H](O)C[C@]2(C)[C@@]1(O)C(=O)CO
19. O=C1NC[C@H](c2ccccc2)OC(=O)[C@H](Cc2ccc(F)cc2)CC/C=C/C[C@H]1CC(=O)N(CCO)Cc1ccccc1

| assay / entry | 6 | 7 | 19 |
| --- | --- | --- | --- |
| RTF Ca sens inh | 4.3 | -3.8 | 1.2 |
| CAL PDZ FP-2 | -2.1 | -2.2 | 0.9 |
| DAGLB inh | 1.8 | 4.1 | -0.2 |
| V-ATPase pH | -1.4 | 4.1 | 2.9 |
| NSD2 HMT inh | / | / | / |
| Pemphigus Ab inh | 96.3 | / | 104.0 |
| CAL PDZ FP-1 | 0.4 | -0.1 | 0.0 |
